KCNQ2 block = KCNQ2 potassium channel inhibitors, primary screen, cell-based, CHO-K1, FluxOR thallium flux, B-score (AID 2156); 20 min; hits give low values; only compounds with negative scores are shown here; some inactives read as strong as hits; B-score at 10 µM; 1.1% of 310,000 active; Potassium voltage-gated channel subfamily KQT member 2 (Rattus norvegicus), O88943;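 active = fluorescence ratio B-score at most minus 3 library SDs, with starting brightness B-score within 2 library SDs, cut at about -5.5 in these data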
Target sequence (O88943 whole entry, looked up): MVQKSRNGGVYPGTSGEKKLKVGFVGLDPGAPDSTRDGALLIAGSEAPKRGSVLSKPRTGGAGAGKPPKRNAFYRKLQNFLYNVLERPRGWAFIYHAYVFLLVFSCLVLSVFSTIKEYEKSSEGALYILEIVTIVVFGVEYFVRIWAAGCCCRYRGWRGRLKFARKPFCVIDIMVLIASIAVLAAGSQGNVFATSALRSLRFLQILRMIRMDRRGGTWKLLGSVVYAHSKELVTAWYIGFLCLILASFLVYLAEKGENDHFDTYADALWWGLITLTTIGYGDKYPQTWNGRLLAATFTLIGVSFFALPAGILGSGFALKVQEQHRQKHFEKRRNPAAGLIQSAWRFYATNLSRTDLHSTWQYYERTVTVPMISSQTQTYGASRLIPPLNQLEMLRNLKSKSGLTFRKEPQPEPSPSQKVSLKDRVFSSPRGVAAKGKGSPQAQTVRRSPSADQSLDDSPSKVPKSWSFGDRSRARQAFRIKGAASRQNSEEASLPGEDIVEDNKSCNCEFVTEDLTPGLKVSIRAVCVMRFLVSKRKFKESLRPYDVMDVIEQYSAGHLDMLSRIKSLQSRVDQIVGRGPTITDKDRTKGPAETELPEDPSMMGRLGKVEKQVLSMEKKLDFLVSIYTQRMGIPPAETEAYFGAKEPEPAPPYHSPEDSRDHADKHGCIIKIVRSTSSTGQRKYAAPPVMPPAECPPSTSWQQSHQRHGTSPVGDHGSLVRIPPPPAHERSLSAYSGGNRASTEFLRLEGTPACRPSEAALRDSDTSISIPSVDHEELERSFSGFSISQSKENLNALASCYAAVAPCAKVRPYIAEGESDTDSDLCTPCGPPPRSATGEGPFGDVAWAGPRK
KCNQ2 block baseline = recorded beside KCNQ2 block, whose call it bears; B-score; measured here: initial fluorescence intensity artifact check;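 brightness before thallium and not channel activity; 0 = typical well and far values either way flag optical interference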
Numbers without * were called inactive; i = inactive. The list is partial. The share of hits here may be higher or lower than overall.

Start of the listing, in advance:
Each structure is followed by: KCNQ2 block	KCNQ2 block baseline
- COc1ccc(Cl)cc1N1CCN(CCNC(=O)Nc2ccccc2C)CC1
  i	0.76
- O=C(CN(c1ccc([N+](=O)[O-])cc1)S(=O)(=O)c1ccccc1)N1CCCCC1
  i	0.03
- Cc1ccccc1C(=O)NCC(=O)NNC(=O)CCN1CCN(c2ccccc2)CC1
  i	1.4
- CCOc1ccc(C2C(C(=O)OC)=CN(CCOC)C=C2C(=O)OC)cc1
  i	-0.52
- CC(C)Oc1ccc(N2CC(C(=O)OCC(=O)NCc3ccccc3)CC2=O)cc1 (configuration not stated)
  i	0.59

The list itself, from the start:
Each structure is followed by: KCNQ2 block	KCNQ2 block baseline
- COc1ccc(Cl)cc1N1CCN(CCNC(=O)Nc2ccccc2C)CC1
  i	0.76
- O=C(CN(c1ccc([N+](=O)[O-])cc1)S(=O)(=O)c1ccccc1)N1CCCCC1
  i	0.03
- Cc1ccccc1C(=O)NCC(=O)NNC(=O)CCN1CCN(c2ccccc2)CC1
  i	1.4
- CCOc1ccc(C2C(C(=O)OC)=CN(CCOC)C=C2C(=O)OC)cc1
  i	-0.52
- CC(C)Oc1ccc(N2CC(C(=O)OCC(=O)NCc3ccccc3)CC2=O)cc1 (configuration not stated)
  i	0.59
- Cc1cccc(NC(=O)CSc2nc(COc3ccccc3)nc3ccccc23)c1C
  i	-1.9
- CCCCN(CCCNC(=O)C1CCCN(S(=O)(=O)CC)C1)Cc1ccccc1 (configuration not stated)
  i	-0.91
- Cc1oc2ccc(O)c(CN(C)C)c2c1C(=O)c1ccccc1
  i	2.6
- CC(C)NC(=O)/C(C#N)=C/c1ccc(N(C)C)o1
  i	11
- COc1ccc(/C(N)=N/OC(=O)CCCN2C(=O)c3ccccc3C2=O)cc1OC
  i	-0.75
- CC(=O)c1ccc(OCC(O)CN2CCCC(C)C2)cc1 (configuration not stated)
  i	0.15
- CCOCCCn1cnc2c(c1=O)c1nc3ccccc3nc1n2-c1ccccc1
  i	-1.4
- Nc1nnc(SCc2coc(-c3ccc(Cl)cc3)n2)s1
  i	0.11
- COc1ccccc1N1CCN(/N=C/c2cc(OC)c(O)c(OC)c2)CC1
  i	-0.1
- Cc1ccc(S(=O)(=O)CC(=O)Nc2nc(C(C)(C)C)cs2)cc1
  i	-0.93
- COc1ccc(C(C(=O)NCC2CCCO2)N(C(=O)c2snc(C(N)=O)c2N)c2ccccc2)cc1OC (configuration not stated)
  i	1.8
- C=CCC(Nc1ccccc1)C12C=CC(O1)C(C(=O)OC)=C2C(=O)OC (configuration not stated)
  i	-0.03
- CC(=O)O/N=C/c1c(C)c(C=O)n2ccccc12
  i	0.48
- CC(C)CN1CCC(=O)N([C@H](CSc2ccc(Br)cc2)Cc2ccccc2)CC1
  i	-1.2
- COC(=O)c1ccc(N2CCOCC2)c(NC(=O)c2ccc3c(c2)OCO3)c1
  i	-1.6
- CCOc1ccc(C(=O)NCc2cccs2)cc1
  i	0.15
- CCCNC(=O)N1CCN(C(c2ccccc2)c2ccccc2)CC1
  i	0.24
- CNC(=O)C(=O)NCC(c1cccs1)S(=O)(=O)c1ccc(C)cc1 (configuration not stated)
  i	1.3
- CCOC(=O)C1(Cc2ccccc2)CCCN(Cc2ccccn2)C1 (configuration not stated)
  i	-1.5
- CCOC(=O)c1c(-c2ccccc2)oc2cc(Br)c(O)cc12
  i	0.01
- O=C(CSc1nnc(CNC(=O)c2ccccc2F)o1)NC1CCCC1
  i	1.8
- COc1cccc(C2/C(=C(\O)c3ccc4c(c3)OCCO4)C(=O)C(=O)N2Cc2cccnc2)c1 (configuration not stated)
  i	-0.04
- CCC(C(=O)Nc1ccccc1Cl)n1nc(C)c2c(C)n(-c3ccccc3)nc2c1=O (configuration not stated)
  i	-0.41
- COc1ccccc1C(CNC(=O)c1cccc(S(=O)(=O)Nc2ccc(C)cc2)c1)N(C)C (configuration not stated)
  i	1.6
- CCC(C(=O)NC1CCCCCC1)n1nc(C)n2c(cc3occc32)c1=O (configuration not stated)
  i	-1.3
- COc1cccc(NC(=O)N2CCCC(C(=O)NC3CCCCC3C)C2)c1 (configuration not stated)
  i	-1
- CCOc1ccc(/C=N/NC(=O)c2[nH]ncc2Br)c(O)c1
  i	0.38
- CC1CCc2cc(F)ccc2N1C(=O)CSc1nnc2c(n1)[nH]c1ccccc12 (configuration not stated)
  i	-2.8
- CN(CC(=O)Nc1ccc(F)c(F)c1F)C(=O)C1=COCCO1
  i	0.32
- COc1cc(OC)nc(Oc2ccccc2C(=O)Oc2ccc(Cl)cc2)n1
  i	-0.12
- COc1ccc(NC(=O)NNC(=O)c2cc3ccccc3cc2O)cc1
  i	-0.51
- CCOC(=O)c1ccc(N2CCN(c3ccccc3F)CC2)c(NC(=O)Nc2cccc(OC)c2)c1
  i	0.53
- COC(=O)C(CCSC)NC(=O)c1cc2c(n(-c3ccccc3)c1=O)CC(C)(C)CC2=O (configuration not stated)
  i	-1.1
- COc1ccccc1-n1c(SCC(=O)Nc2cc(C)on2)nc2c(c1=O)SCC2
  i	-1
- CCCNC(=O)c1ccc(N2CCC3(CC2)CC(c2cccc(Br)c2)=NO3)c(NC(=O)c2ccccc2)c1
  i	-0.91
- Cc1ccccc1C(=O)Nc1ccc(C(=O)N/N=C/c2ccccn2)cc1
  i	-0.14
- CC/C(=N\O)c1c(O)c2c(n(-c3ccccc3)c1=O)CCCC2
  i	2.3
- O=C(CN1C(=O)NC2(CCCC2)C1=O)Nc1ccc(OC(F)(F)F)cc1
  i	0.1
- COc1ccc(Br)cc1C1CC(=O)N2CN(Cc3ccccc3)CSC2=C1C#N (configuration not stated)
  i	-1
- O=C(O/N=C(\c1ccccc1)c1ccccn1)c1cccc2ccccc12
  i	0.71
- CCOC(=O)C(C(=O)Nc1nc2ccccc2s1)C1CCCCC1 (configuration not stated)
  i	-1.7
- Cc1cc(NCCN2CCOCC2)c2ccc3ccccc3c2n1
  i	-1.1
- COc1ccc(OC2C(=O)N(Cc3ccc(F)cc3)C2c2cc(OC)c(OC)c(OC)c2)cc1 (configuration not stated)
  i	-0.14
- O=C(c1ccco1)N1CCN(c2ncnc3c(-c4ccccc4)nsc23)CC1
  i	-1.5
- CNc1ccc(Cl)cc1C(N)=O
  i	-1
- CS(=O)(=O)/C(C#N)=C/c1c(-c2ccccc2)nc2n1CCS2
  i	-1.1
- Cc1ccc(C(C)C)c(OCC(=O)Nc2ccc3c(c2)nc(CN2CCCC2)n3C)c1
  i	-1.1
- COc1cc(OC)cc(C(=O)Nc2cccc(NC(=O)c3cc(OC)cc(OC)c3)n2)c1
  i	3.8
- CCC1=NC(c2ccc(OC)cc2)N(O)C1(C)C (configuration not stated)
  i	-0.98
- CC(=O)Nc1ccc(S(=O)(=O)N2CCCN(S(=O)(=O)c3ccc(NC(C)=O)cc3)CC2)cc1
  i	0.17
- COc1ccc(CNS(=O)(=O)NCc2ccc(C)cc2)cc1
  i	1.4
- Cc1csc2nc(O)c(C(=O)NCCC3=CCCCC3)c(=O)n12
  i	-0.12
- COc1nc(OC)nc(Oc2ccc(Cl)cc2[N+](=O)[O-])n1
  i	0.01
- CSc1ncc(CN2CCCC(C(=O)c3ccc(C(C)(C)C)cc3)C2)cn1 (configuration not stated)
  i	0.43
- O=C(c1ccc2c(c1)OCO2)N1CCN(c2ccccn2)CC1
  i	-0.87

Three compounds already listed, arranged by count of non-hydrogen atoms, ascending:
Each structure is followed by: KCNQ2 block	KCNQ2 block baseline
- CCC1=NC(c2ccc(OC)cc2)N(O)C1(C)C (configuration not stated)
  i	-0.98
- CCOc1ccc(/C=N/NC(=O)c2[nH]ncc2Br)c(O)c1
  i	0.38
- CC(=O)Nc1ccc(S(=O)(=O)N2CCCN(S(=O)(=O)c3ccc(NC(C)=O)cc3)CC2)cc1
  i	0.17

Additional results follow.
Each structure is followed by: KCNQ2 block	KCNQ2 block baseline
- C=CCn1c(SCC(=O)NC2CCCc3ccccc32)nnc1-c1ccncc1 (configuration not stated)
  i	0.24
- C[C@@H]([C@H](O)c1ccccc1)N(C)C(=S)Nc1ccccc1
  i	-1.7
- COc1cccc(OC)c1OCC(O)CN1CCN(c2ccc(F)cc2)CC1 (configuration not stated)
  i	0.82
- CCN(CC)C(=S)SCC(=O)c1ccc(F)cc1
  i	-1.9
- O=C(COc1ccccc1F)NNC(=O)c1ccc(N2CCCCC2)c([N+](=O)[O-])c1
  i	-0.04
- CCC(=O)Nc1nc(=S)ss1
  i	0.35
- CCOC(=O)c1c(S(=O)(=O)NCC(=O)Nc2cc(C)ccc2OC)c(C)n(C)c1C
  i	1.2
- Cc1cc2ncc(C(N)=O)cn2n1
  i	-0.41
- CCC(C)Cn1c(S(=O)(=O)O)nc2ccccc21 (configuration not stated)
  i	3.1
- Oc1ccc(/C=N/N(Cc2ccccc2)c2ccccc2)cc1
  i	0.08
- CCOc1ccc(NS(=O)(=O)c2cc3c4c(c2)CCN4C(=O)CC3)cc1
  i	-0.02
- Cc1cccc(Nc2cc(=O)[nH]c(=O)[nH]2)c1
  i	1.3
- Cc1ccc(NC(=O)Cn2c(O)c(N=NC(=O)c3cc([N+](=O)[O-])ccc3O)c3ccccc32)cc1
  i	-1.1
- CCOC(=O)C1CCN(c2c(NCc3ccc(C(=O)Nc4ccc(C)cc4)cc3)c(=O)c2=O)CC1
  i	0.03
- COc1ccc(-c2c(O)c(C#N)c(-c3ccccc3)n(-c3ccc(OC)cc3)c2=O)cc1
  i	0.9
- COc1ccc(F)cc1S(=O)(=O)N1CC(C)CC(C)C1 (configuration not stated)
  i	0.75
- N#C/C(=C(/O)c1ccc(-c2cccc([N+](=O)[O-])c2)o1)c1nc2ccccc2s1
  i	-0.31
- O=C(NCc1ccc(Cl)cc1)c1ccc(OCC2CCCO2)cc1 (configuration not stated)
  i	-2.1
- O=C(Nc1ccc(-c2nc3cc(Cl)ccc3o2)cc1)C1CCCO1 (configuration not stated)
  i	-0.47
- COc1ccc(Nc2ccc([N+](=O)[O-])cn2)cc1
  i	0.01
- CCOC(=O)c1ccc(N/C=C2\CCCCC2=O)cc1
  i	0.15
- COc1ccccc1OCc1ccc(C(=O)N2CCOCC2)o1
  i	0.75
- CCN(CC)c1ccc(/C=C2\CCC(/C=C(\C#N)C(=O)Nc3ccccc3F)=C2N2CCOCC2)cc1
  i	-2.1
- Cc1cc(C(=O)Nc2ccccc2N2CCCCC2)no1
  i	-0.5
- CCOc1ccc2nc(SCC(=O)NCc3ccc4c(c3)OCO4)[nH]c2c1
  i	0.3
- CCOC(=O)C1=C(C)N=c2s/c(=C\C(=O)OC)c(=O)n2C1c1ccc(OC)cc1 (configuration not stated)
  i	0.66
- CCc1cc2c(SCC(=O)O)ncnc2s1
  i	2.5
- COc1ccccc1-c1nc(S(=O)(=O)c2ccccc2)c(N2CCCCC2)o1
  i	-1.5
- COc1ccc2nc(SCCN(C)C)[nH]c2c1
  i	-0.4
- COc1ccc(CN(C)C(=O)c2cccc(Oc3ccccc3)c2)c(OC)c1OC
  i	-1
- CN(C(=O)COC(=O)c1ccc2c(c1)OCO2)c1c(N)n(Cc2ccccc2)c(=O)[nH]c1=O
  i	0.11
- CC(=O)Nc1ccc(S(=O)(=O)N2CCCN(S(=O)(=O)c3ccc(C)cc3)CC2)cc1
  i	-1.2
- Cc1cccn2cc(-c3c[nH]c4ccccc34)nc12
  i	2.8
- CCOC(=O)C1=C(C)OC(N)=C(C#N)C1c1ccc(O)c(OC)c1 (configuration not stated)
  i	-1.1
- N#Cc1ccsc1NC(=O)CN1CCN(c2ccccn2)CC1
  i	-2.2
- O=C(NCC1COCCO1)c1ccc(OC2CCN(CCc3ccccc3)CC2)cc1 (configuration not stated)
  i	-0.38
- CCCn1nc(C(=O)OCC(=O)Nc2ncc(Cl)c(C)c2Cl)c2ccccc2c1=O
  i	-0.26
- COc1cc(C(=O)NCc2ccc3c(c2)OCO3)c([N+](=O)[O-])cc1OC
  i	0.48
- CC(C)Cc1nnc(NC(=O)c2cc(-c3ccccc3)nc3ccccc23)s1
  i	-0.73
- Cc1nn(CCCC(=O)NCc2ccco2)c(=O)c2nn(-c3ccccc3)c(C)c12
  i	1.1
- Cc1c(C#N)c2ccccc2n1CC(=O)NCC1CCCO1 (configuration not stated)
  i	0.77
- Cc1c(NCc2cc(Cl)ccc2O)c(=O)n(-c2ccccc2)n1C
  i	-0.36
- Cc1cccc(C)c1NC(=O)C(C)Sc1nnc(C)n1CC1CCCO1 (configuration not stated)
  i	0.02
- Cc1ccccc1NCc1ccccc1O
  i	-0.12
- Cc1ccc(/C=N/n2c(C)nnc2C)cc1
  i	-2.1
- CC(=O)c1c(C)nn(CC(O)COc2ccc3ccccc3c2)c1C (configuration not stated)
  i	0.36
- O=C(CSc1nnc(-c2cnccn2)n1Cc1ccco1)Nc1ccc(Br)cc1
  i	1.5
- CCCCn1c(/N=C/c2ccc(N(C)C)cc2)nc2ccccc21
  i	1.5
- CCC(C(=O)N1CCC(C(N)=O)CC1)n1nc(C)n2c(cc3occc32)c1=O (configuration not stated)
  i	-0.04
- Cc1[nH]n(-c2cccc(Cl)c2)c(=O)c1C=NCC(C)C
  i	4.6
- COc1ccc(CN2CCNC(=O)C2CC(=O)N(C)Cc2nccs2)c(OC)c1 (configuration not stated)
  i	0.18
- O=C(NCCc1ccc(Cl)cc1)/C(=C/c1cccnc1)NC(=O)c1ccccc1
  i	0.31
- COc1ccc(CCNC(=O)c2ccccc2NC(=O)C2=C(C)OCCS2)cc1OC
  i	1.2
- Cc1ccc(C)c(OCCCN2CCNCC2)c1
  i	-0.19
- O=C(/C=C/c1ccc(Br)cc1)NC1CCCCCC1
  i	0.51

Sorted by value in KCNQ2 block baseline (falling): some entries from above.
Each structure is followed by: KCNQ2 block	KCNQ2 block baseline
- Cc1nn(CCCC(=O)NCc2ccco2)c(=O)c2nn(-c3ccccc3)c(C)c12
  i	1.1
- COc1nc(OC)nc(Oc2ccc(Cl)cc2[N+](=O)[O-])n1
  i	0.01
- CCOc1ccc(NS(=O)(=O)c2cc3c4c(c2)CCN4C(=O)CC3)cc1
  i	-0.02
- Cc1c(NCc2cc(Cl)ccc2O)c(=O)n(-c2ccccc2)n1C
  i	-0.36
- COC(=O)C(CCSC)NC(=O)c1cc2c(n(-c3ccccc3)c1=O)CC(C)(C)CC2=O (configuration not stated)
  i	-1.1

From PubChem
